Source: PubChem
Yeast UUG start: alters start codon recognition fidelity in yeast | S. cerevisiae UUG-firefly luciferase reporter, luminescence/redox ratio | activity score, % at 18.7 µM | 0.13% of 350,000 active;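 active means replicate mean at a twofold rise or more, about +100% in these data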;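 further: firefly luciferase made from a UUG start codon reports start codon fidelity; reporter light over untreated wells divided by growth signal over untreated wells; some hits fall short of that in this replicate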
Env fusion inh: HIV envelope-mediated fusion inhibition; HeLa-JRFL Env/CEM21 cell fusion, luciferase; inhibition, % at 12.3 µM; 1.1% of 360,000 active;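 active means mean replicate inhibition score of at least 50 and every replicate individually at or above 50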;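 further: 0% = plate neutral controls and 100% = maraviroc near 300 nM; one replicate is shown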
An asterisk follows results filed as active; [ ] = dose if it differs, or a comment. This is a subset. The share of hits here may be higher or lower than overall.

Results for C[C@@H]1CN([C@@H](C)CO)C(=O)c2cc(NC(=O)NC3CCCCC3)ccc2O[C@H]1CN(C)C(=O)NC1CCCCC1 ?
Yeast UUG start: -4; Env fusion inh: 29[16.7 µM]

Results for CCCC#Cc1cnc2c(c1)C(=O)N([C@H](C)CO)C[C@H](C)[C@H](CN(C)S(=O)(=O)c1ccccc1)O2 ?
Yeast UUG start: 1; Env fusion inh: -3[16.7 µM]

Results for C[C@@H]1CN([C@@H](C)CO)C(=O)Cc2cc(NC(=O)Nc3ccc(F)cc3)ccc2O[C@@H]1CN(C)C(=O)Nc1ccc(C(F)(F)F)cc1 ?
Yeast UUG start: -4; Env fusion inh: -2[16.7 µM]

How did C=CCNC(=O)[C@H]1[C@@H]2C(=O)O[C@@H](c3ccccc3)[C@@H](c3ccccc3)N2[C@@H](c2ccccc2OCCO)[C@]12C(=O)N(C(=O)OCCOC)c1ccc(C#Cc3ccc(OC)cc3)cc12 do in these assays?
Yeast UUG start: -9; Env fusion inh: 5[16.7 µM]

Results for C[C@H]1CN([C@@H](C)CO)C(=O)c2cccc(NC(=O)C3CC3)c2O[C@H]1CN(C)Cc1ccc2c(c1)OCO2 ?
Yeast UUG start: 1; Env fusion inh: 16[16.7 µM]

Results for C[C@@H]1CN([C@H](C)CO)C(=O)Cc2cc(NS(=O)(=O)c3ccccc3)ccc2O[C@@H]1CN(C)S(=O)(=O)c1cn(C)cn1 ?
Yeast UUG start: 11; Env fusion inh: -20[16.7 µM]

What do the screens show for `CS(=O)(=O)Nc1ccc2c(c1)[C@H]1C[C@H](CC(=O)NC3CCCCC3)O[C@H](CO)[C@H]1O2`?
Yeast UUG start: 45; Env fusion inh: 21[16.7 µM]

Results for COCC#Cc1cnc2c(c1)C(=O)N([C@H](C)CO)C[C@H](C)[C@@H](CN(C)S(=O)(=O)c1cn(C)cn1)O2 ?
Yeast UUG start: -7; Env fusion inh: -9[16.7 µM]

Results for Cc1noc(C)c1NC(=O)Nc1ccc2c(c1)CC(=O)N([C@@H](C)CO)C[C@@H](C)[C@@H](CN(C)Cc1ccc3c(c1)OCO3)O2 ?
Yeast UUG start: -8; Env fusion inh: -29[16.7 µM]

What do the screens show for `C[C@@H]1CCCCO[C@H](CN(C)C(=O)C2CCCCC2)[C@H](C)CN([C@@H](C)CO)C(=O)c2cc(NC(=O)Nc3cccc4ccccc34)ccc2O1`?
Yeast UUG start: -23; Env fusion inh: 23[16.7 µM]

How did COCCNC(=O)C[C@@H]1CC[C@H]2[C@@H](COc3ccc(NC(=O)Nc4ccccc4)cc3C(=O)N2C)O1 do in these assays?
Yeast UUG start: 1; Env fusion inh: -21[16.7 µM]

What do the screens show for `Cc1ccc(S(=O)(=O)N(C)C[C@H]2Oc3ccc(NS(=O)(=O)c4ccc(F)cc4)cc3C(=O)N([C@@H](C)CO)C[C@@H]2C)cc1`?
Yeast UUG start: 10; Env fusion inh: 15[16.7 µM]

4 successive compounds out of the list so far, for reference:
How did C=CCNC(=O)[C@H]1[C@@H]2C(=O)O[C@@H](c3ccccc3)[C@@H](c3ccccc3)N2[C@@H](c2ccccc2OCCO)[C@]12C(=O)N(C(=O)OCCOC)c1ccc(C#Cc3ccc(OC)cc3)cc12 do in these assays?
Yeast UUG start: -9; Env fusion inh: 5[16.7 µM]

Results for C[C@H]1CN([C@@H](C)CO)C(=O)c2cccc(NC(=O)C3CC3)c2O[C@H]1CN(C)Cc1ccc2c(c1)OCO2 ?
Yeast UUG start: 1; Env fusion inh: 16[16.7 µM]

Results for C[C@@H]1CN([C@H](C)CO)C(=O)Cc2cc(NS(=O)(=O)c3ccccc3)ccc2O[C@@H]1CN(C)S(=O)(=O)c1cn(C)cn1 ?
Yeast UUG start: 11; Env fusion inh: -20[16.7 µM]

What do the screens show for `CS(=O)(=O)Nc1ccc2c(c1)[C@H]1C[C@H](CC(=O)NC3CCCCC3)O[C@H](CO)[C@H]1O2`?
Yeast UUG start: 45; Env fusion inh: 21[16.7 µM]

(continued)
What do the screens show for `C[C@@H]1CN([C@H](C)CO)S(=O)(=O)c2ccc(C#CC3CC3)cc2O[C@@H]1CN(C)Cc1ccccc1F`?
Yeast UUG start: -20; Env fusion inh: 37[16.7 µM]

How did COCC#Cc1cnc2c(c1)C(=O)N([C@H](C)CO)C[C@@H](C)[C@@H](CN(C)C(=O)Nc1ccc(OC)cc1)O2 do in these assays?
Yeast UUG start: 8; Env fusion inh: -17[16.7 µM]

Results for COc1ccc(NC(=O)N(C)C[C@@H]2OCCCC[C@@H](C)Oc3ccc(NC(=O)NC4CCCCC4)cc3C(=O)N([C@@H](C)CO)C[C@H]2C)cc1 ?
Yeast UUG start: -20; Env fusion inh: -6[16.7 µM]

What do the screens show for `Cc1ccccc1-c1cnc2c(c1)C(=O)N([C@H](C)CO)C[C@H](C)[C@H](CN(C)Cc1cccnc1)O2`?
Yeast UUG start: 2; Env fusion inh: 5[16.7 µM]

How did O=C1O[C@@H](c2ccccc2)[C@@H](c2ccccc2)N2[C@@H](c3ccc(O)cc3)[C@]3(C(=O)Nc4ccc(C#CC5(O)CCCCCC5)cc43)[C@@H](C(=O)N3CCN(c4ncccn4)CC3)[C@H]12 do in these assays?
Yeast UUG start: -13; Env fusion inh: -5[16.7 µM]

Results for COc1ccc(NC(=O)N(C)C[C@H]2Oc3ccc(NC(=O)CCN4CCOCC4)cc3C(=O)N([C@@H](C)CO)C[C@@H]2C)cc1 ?
Yeast UUG start: -1; Env fusion inh: 6[16.7 µM]

What do the screens show for `O=C(NCC[C@@H]1CC[C@H](NC(=O)C2CCCC2)[C@@H](CO)O1)c1ccc(F)cc1`?
Yeast UUG start: -8; Env fusion inh: 3[16.7 µM]

What do the screens show for `C[C@H]1CCCCO[C@@H](CN(C)Cc2ccc(C(F)(F)F)cc2)[C@@H](C)CN([C@@H](C)CO)C(=O)c2cc(NS(=O)(=O)c3cccs3)ccc2O1`?
Yeast UUG start: 4; Env fusion inh: 14[16.7 µM]

How did C[C@H](CO)N1C[C@H](C)[C@@H](CN(C)Cc2ccc3c(c2)OCO3)OCCCC[C@H](C)Oc2ccc(NC(=O)c3ccncc3)cc2C1=O do in these assays?
Yeast UUG start: 1; Env fusion inh: -2[16.7 µM]

How did Cn1cnc(S(=O)(=O)N[C@@H]2CC[C@H](CC(=O)Nc3ccc(-c4ccccc4)cc3)O[C@H]2CO)c1 do in these assays?
Yeast UUG start: -15; Env fusion inh: -1[16.7 µM]

Results for Cc1ccc(S(=O)(=O)N[C@@H]2CCCN(Cc3ccc(OCCO)cc3)C2)cc1 ?
Yeast UUG start: -14; Env fusion inh: 3[16.7 µM]

How did COCc1cn(CC[C@H]2CC[C@H](NC(=O)c3ccc(F)cc3)[C@H](CO)O2)nn1 do in these assays?
Yeast UUG start: -7; Env fusion inh: -2[16.7 µM]

Of the compounds above, these have a CF3 group.
Results for C[C@@H]1CN([C@@H](C)CO)C(=O)Cc2cc(NC(=O)Nc3ccc(F)cc3)ccc2O[C@@H]1CN(C)C(=O)Nc1ccc(C(F)(F)F)cc1 ?
Yeast UUG start: -4; Env fusion inh: -2[16.7 µM]

What do the screens show for `C[C@H]1CCCCO[C@@H](CN(C)Cc2ccc(C(F)(F)F)cc2)[C@@H](C)CN([C@@H](C)CO)C(=O)c2cc(NS(=O)(=O)c3cccs3)ccc2O1`?
Yeast UUG start: 4; Env fusion inh: 14[16.7 µM]

(continued)
Results for C[C@@H]1CN([C@H](C)CO)S(=O)(=O)c2ccc(C#CC(C)(C)O)cc2O[C@@H]1CN(C)C(=O)C1CCCCC1 ?
Yeast UUG start: 3; Env fusion inh: -119[16.7 µM]

Results for COc1ccc(NC(=O)N(C)C[C@H]2Oc3ccc(NC(=O)c4ccncc4)cc3C(=O)N([C@@H](C)CO)C[C@H]2C)cc1 ?
Yeast UUG start: -4; Env fusion inh: 3[16.7 µM]

Results for CN(C)CC(=O)N[C@H]1CC[C@H](CC(=O)NCc2ccc(Cl)cc2)O[C@@H]1CO ?
Yeast UUG start: -8; Env fusion inh: -11[16.7 µM]

Results for COc1ccc(CNC(=O)C[C@H]2CC[C@@H](NC(=O)c3ccc4c(c3)OCO4)[C@H](CO)O2)cc1 ?
Yeast UUG start: -16; Env fusion inh: 8[16.7 µM]

Results for COc1ccc(S(=O)(=O)N(C)C[C@H]2OCCCC[C@@H](C)Oc3ccc(NC(=O)C4CCCCC4)cc3C(=O)N([C@H](C)CO)C[C@@H]2C)cc1 ?
Yeast UUG start: -1; Env fusion inh: -19[16.7 µM]

Results for C[C@H]1CN([C@@H](C)CO)C(=O)Cc2cc(NS(=O)(=O)c3ccc(F)cc3)ccc2O[C@@H]1CN(C)C(=O)Nc1ccc(F)cc1 ?
Yeast UUG start: -8; Env fusion inh: 5[16.7 µM]

Results for O=C(Cc1ccccn1)NCC[C@@H]1CC[C@H](NC(=O)Nc2ccc(F)cc2)[C@@H](CO)O1 ?
Yeast UUG start: -4; Env fusion inh: -1[16.7 µM]

How did C[C@@H]1CCCCO[C@H](CN(C)Cc2ccc(Cl)c(Cl)c2)[C@@H](C)CN([C@H](C)CO)C(=O)c2cc(NS(=O)(=O)c3cn(C)cn3)ccc2O1 do in these assays?
Yeast UUG start: 1; Env fusion inh: -18[16.7 µM]

How did C[C@@H]1CCCCO[C@H](CN(C)S(=O)(=O)c2ccc(Cl)cc2)[C@@H](C)CN([C@@H](C)CO)C(=O)c2cc(NC(=O)Cc3ccccc3)ccc2O1 do in these assays?
Yeast UUG start: -11; Env fusion inh: -6[16.7 µM]

Results for O=C(N[C@@H]1CC[C@H](CCNS(=O)(=O)c2ccc(F)cc2)O[C@H]1CO)C1CCC1 ?
Yeast UUG start: 4; Env fusion inh: -1[16.7 µM]

How did COc1ccc(S(=O)(=O)N(C)C[C@@H]2Oc3ccc(NC(=O)Nc4ccc(F)cc4)cc3CC(=O)N([C@H](C)CO)C[C@@H]2C)cc1 do in these assays?
Yeast UUG start: -10; Env fusion inh: 44[16.7 µM]

How did C[C@H]1CCCCO[C@H](CN(C)S(=O)(=O)c2ccccc2)[C@@H](C)CN([C@@H](C)CO)C(=O)c2cc(NS(=O)(=O)c3cn(C)cn3)ccc2O1 do in these assays?
Yeast UUG start: -3; Env fusion inh: -20[16.7 µM]

How did Cc1ccc(S(=O)(=O)N[C@@H]2C=C[C@H](CC(=O)N3CCC(Cc4ccccc4)CC3)O[C@H]2CO)cc1 do in these assays?
Yeast UUG start: 36; Env fusion inh: 13[16.7 µM]

What do the screens show for `Cc1noc(C)c1NC(=O)N(C)C[C@H]1Oc2ccc(NC(=O)Nc3ccc(F)cc3)cc2C(=O)N([C@H](C)CO)C[C@@H]1C`?
Yeast UUG start: -26; Env fusion inh: -4[16.7 µM]

Results for CNC[C@H]1OCCCC[C@@H](C)Oc2ccc(N(C)C)cc2C(=O)N([C@@H](C)CO)C[C@H]1C ?
Yeast UUG start: 25; Env fusion inh: -4[16.7 µM]

What do the screens show for `C[C@@H]1CN([C@@H](C)CO)C(=O)Cc2cc(NC(=O)Nc3ccc4c(c3)OCO4)ccc2O[C@H]1CN(C)C(=O)NC1CCCCC1`?
Yeast UUG start: 19; Env fusion inh: 1[16.7 µM]

Results for Cc1ccccc1S(=O)(=O)N1C[C@@H](O)COC[C@H]2O[C@@H](CC(=O)NCc3ccccc3Cl)CC[C@@H]21 ?
Yeast UUG start: 13; Env fusion inh: 9[16.7 µM]

What do the screens show for `CO[C@H]1CN(C)C(=O)c2cc(NS(C)(=O)=O)ccc2OC[C@@H](C)N(C(=O)CC2CC2)C[C@H]1C`?
Yeast UUG start: -4; Env fusion inh: 0[16.7 µM]

How did Cc1ccc(S(=O)(=O)Nc2ccc3c(c2)C(=O)N([C@@H](C)CO)C[C@H](C)[C@@H](CN(C)Cc2ccc(C(F)(F)F)cc2)OCCCC[C@H](C)O3)cc1 do in these assays?
Yeast UUG start: 15; Env fusion inh: 9[16.7 µM]

What do the screens show for `C[C@@H]1CCCCO[C@@H](CN(C)S(=O)(=O)c2ccc(F)cc2)[C@H](C)CN([C@H](C)CO)C(=O)c2cc(NC(=O)Cc3ccccc3)ccc2O1`?
Yeast UUG start: 11; Env fusion inh: 17[16.7 µM]

What do the screens show for `CO[C@H]1CN(C)C(=O)c2ccc(NC(=O)Cc3ccccc3)cc2OC[C@@H](C)NC[C@@H]1C`?
Yeast UUG start: -5; Env fusion inh: -4[16.7 µM]

What do the screens show for `C[C@@H]1CN([C@H](C)CO)C(=O)c2cccc(NC(=O)c3ccncc3)c2O[C@H]1CN(C)Cc1ccc(Cl)c(Cl)c1`?
Yeast UUG start: 12; Env fusion inh: 75*[16.7 µM]

Results for C[C@H]1CN([C@@H](C)CO)C(=O)c2cc(C#Cc3ccc(F)cc3)cnc2O[C@H]1CN(C)S(C)(=O)=O ?
Yeast UUG start: 3; Env fusion inh: 6[16.7 µM]

What do the screens show for `C[C@H]1CN([C@@H](C)CO)C(=O)Cc2cc(NC(=O)c3ccncc3)ccc2O[C@@H]1CN(C)C(=O)Nc1cccc2ccccc12`?
Yeast UUG start: -12; Env fusion inh: 4[16.7 µM]

Results for CN(C)C(=O)C[C@H]1C=C[C@@H](NC(=O)C2CCC2)[C@@H](CO)O1 ?
Yeast UUG start: -1; Env fusion inh: 24[16.7 µM]

How did CC(C)CC#Cc1cnc2c(c1)C(=O)N([C@@H](C)CO)C[C@@H](C)[C@H](CN(C)C(=O)c1ccc3c(c1)OCO3)O2 do in these assays?
Yeast UUG start: 3; Env fusion inh: -2[16.7 µM]

How did C/C=C/c1cnc2c(c1)C(=O)N([C@H](C)CO)C[C@H](C)[C@@H](CN(C)C(=O)c1ccc3c(c1)OCO3)O2 do in these assays?
Yeast UUG start: 2; Env fusion inh: 0[16.7 µM]

What do the screens show for `CCC(=O)N(C)C[C@H]1Oc2ncc(C#CCc3ccccc3)cc2C(=O)N([C@H](C)CO)C[C@@H]1C`?
Yeast UUG start: -1; Env fusion inh: 8[16.7 µM]

Results for C[C@H](CO)N1C[C@H](C)[C@@H](CN(C)S(=O)(=O)c2ccc(Cl)cc2)Oc2ccc(NC(=O)Cc3ccccc3)cc2C1=O ?
Yeast UUG start: 10; Env fusion inh: 1[16.7 µM]
